Mtb growth = Mycobacterium tuberculosis H37Rv growth inhibition, cell based, confirmatory dose response (AID 1949); M. tuberculosis H37Rv growth inhibition; most inactive calls were filed without a number and no value below 0 was filed; hit rate 1.6% among 100,000; inhibition, % at 10 µg/mL; hits with a dose series show IC50 in µg/mL;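 active means confirmed in a dose series; inconclusive means about 50% or more but not retested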;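 further: bacteria grown 7 days with compound before Alamar blue readout; 0% = untreated bacteria and 100% = reference antibiotic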
The depositor's hits bear a star; i = inactive; ? = inconclusive. Some of the compounds tested, so the mix of outcomes need not match the whole.

Structure | Mtb growth
CCc1ccccc1N1CCN(S(=O)(=O)c2ccc(Cl)c(Cl)c2OC)CC1 | i
Cc1cc(C(=O)N2CCN(C/C=C/c3ccccc3)CC2)c(C)o1 | i
CC(C)(C)NS(=O)(=O)c1ccc(NC(=O)COc2ccc(Cl)cc2Br)cc1 | i
CC(=O)c1cccc(NC(=O)Nc2ncn(Cc3ccc(Cl)c(Cl)c3)n2)c1 | i
CC1(C)CC(O)CC(C)(C)N1CC(O)COc1ccccc1Br (stereo not given) | i
CCCCC(=O)NC(c1ccco1)c1cc([N+](=O)[O-])c2cccnc2c1O (stereo not given) | 1.5%
CC(C)c1ccc(N(CC(=O)Nc2ccc(Br)cc2F)S(C)(=O)=O)cc1 | i
CSCCC(NC(=O)C1CCC(C)CC1)C(=O)O (stereo not given) | 0.8%
O=C1N(Cc2ccccc2Cl)c2ccc(Br)cc2C1(O)c1c[nH]c2ccccc12 (stereo not given) | 1.68µg/mL*
Cn1cccc1-c1nc2ccc(NC(=O)c3ccccc3)cc2[nH]1 | i
Cc1cccc(OCC(=O)NCc2ccc(F)cc2)c1 | i
Cc1ccc(C)c(NC(=O)CN(c2ccc(Cl)c(C(F)(F)F)c2)S(C)(=O)=O)c1 | 1.2%
COc1ccc(S(=O)(=O)N(C)CC(=O)Nc2ccc(Cl)c(Cl)c2)cc1 | i
Cn1c(CNC(=O)c2ccco2)nnc1SCC(=O)N1c2ccccc2Sc2ccccc21 | i
COc1ccc(-n2nnnc2SCCO)cc1 | i
O=C(Cc1ccccc1)Nc1cc([N+](=O)[O-])ccc1N1CCCC1 | i
Cc1ccc(C)c(OS(=O)(=O)c2ccc(Br)cc2)c1 | i
Cc1cc(Cl)ccc1OCC(=O)Nc1ccc2c(c1)OCCO2 | 0.7%
COC(=O)C1=CN(C)C=C(C(=O)OC)C1c1ccc(F)c(Br)c1 | 2.5%
Cc1occc1C(=O)Nc1cc(=O)n(C)c(=O)n1C | i
CC(=O)c1cccc(NC(=O)COc2cc(C)cc(C)c2)c1 | i
O=C1OCCC1Sc1cccc2cccnc12 (stereo not given) | 7.31µg/mL*
CCc1ccc(/C=C/c2nc3ccccc3c(=O)n2-c2ccc(OC)cc2)cc1 | 2.4%
O=C(Nc1ccc(-c2nc3ccccc3[nH]2)cc1)C1CC1 | 1.6%
CC12CCC(C1)C(C)(C)C2OCC(O)CNC1CCCC1 (stereo not given) | 1.7%
CC(=O)c1cccc(-n2c(CCC(=O)O)ccc2-c2ccc(C)cc2)c1 | i
COC(=O)c1sc(NC(=S)Nc2ccc(S(=O)(=O)NC34CC5CC(CC(C5)C3)C4)cc2)c(C(=O)OC)c1C | i
Cc1cccc(C(=O)Nc2ccc(C(=O)n3nc(C)cc3C)cc2)c1 | i
Fc1ccc(CSc2nnc(SCc3ccccc3)s2)cc1 | 14.3%
CC(C)(C)NCc1cc(Br)ccc1OC1CCCC1 | i
CCCCC(=O)Nc1nc2c(s1)C(=O)CC(C)(C)C2 | i
CCC(C)N(C(=O)c1ccc(-c2ccccc2)cc1)C(C)CC (stereo not given) | 8.0%
COc1cc(NC(=S)NC(=O)c2cccc(OCc3ccccc3)c2)ccc1NC(=O)C(C)C | i
COc1ccccc1C1CC(=O)NC(SCC(=O)NCc2ccccc2)=C1C#N (stereo not given) | i
CCCCOc1ccc(CSc2n[nH]c(-c3ccc(OCCC)cc3)n2)cc1[N+](=O)[O-] | 7.0%
Cc1[nH]c2ccccc2c1C1(O)C(=O)N(CCc2ccccc2)c2ccccc21 (stereo not given) | i
c1cc2[nH]onc2c2c3c(nc12)CCCC3 | 8.28µg/mL*
COC(=O)CN1C(=S)N(C)C(=O)C1CC(=O)Nc1ccccc1 (stereo not given) | i
CCSc1nnc2n(-c3ccccc3)c3ccccc3n12 | i
CCn1ncc(Br)c1C(=O)Nc1ccc(Cl)cn1 | i
N=c1c(S(=O)(=O)c2ccc(Cl)cc2)cc2c(=O)n3ccccc3nc2n1Cc1cccnc1 | i
O=c1oc2cc(OCc3ccccc3Br)c(Cl)cc2c2c1CCC2 | i
CCOc1ccc(NC2CC(=O)N(c3ccccc3F)C2=O)cc1 (stereo not given) | 34.0%
Cc1ccccc1NC(=O)CCC(C(=O)O)C(C)C (stereo not given) | i
Cn1c(NC(=O)c2cc(F)c(F)cc2Cl)nc2ccccc21 | 28.8%
N#Cc1cc2c(nc1SCC(=O)Nc1ccccc1OC(F)(F)F)CCCC2 | 36.7%
O=C(CNS(=O)(=O)c1ccccc1)Nc1cccc2ccccc12 | i
Cc1cccc(NC(=O)c2cc(NC(=O)c3ccco3)ccc2Cl)n1 | i
Cn1c(=O)c2c(nc3n2CC(=O)N3c2ccc3c(c2)OCCO3)n(C)c1=O | i
CC12CN3CCN(CC(C3)C1(O)CN1CCOCC1)C2 (stereo not given) | 1.8%
Cc1nnc(NC(=O)CSc2nnc(Cc3ccccc3)n2-c2ccccc2)s1 | i
CC(C)CC(=O)N1CCC(N2CCN(Cc3ccccc3)CC2)CC1 | 1.7%
Cc1cc(C(=O)Oc2cccc(NC3=NS(=O)(=O)c4ccccc43)c2)c2ccccc2n1 | i
FC(F)(F)c1cccc(CSc2nnc(-c3ccncc3)n2-c2ccc(Cl)cc2)c1 | i
S=c1[nH]cnc2sc(-c3ccccc3)cc12 | ?
CCc1ccc(OCC(=O)NCc2ccncc2)c(Br)c1 | i

(more compounds)
Structure | Mtb growth
Cc1ccc(N(C(=O)c2cccs2)C2C=CS(=O)(=O)C2)cc1 (stereo not given) | i
Cc1cccc(N(CC(=O)N2CCN(C)CC2)S(C)(=O)=O)c1C | i
COc1ccc(OCC(=O)Nc2ccc3oc(-c4ccc(OC)cc4)nc3c2)cc1 | i
Cc1oc2cc(OCC(=O)c3ccc(OC(F)F)cc3)ccc2c(=O)c1-c1ccc(F)cc1 | i
CC(C)Oc1ccccc1C1C2=C(CC(C)(C)CC2=O)NC2=C1C(=O)CC(C)(C)C2 | i
Cc1ccc(NC(=O)c2ccco2)c(NC(=O)COc2ccccc2Cl)c1 | i
CCOC(=O)c1ccc(-n2c(CCC(=O)O)ccc2-c2ccccc2)cc1 | i
Cc1nc(SCC(N)=O)c(C(N)=O)c(C)c1C | i
Cn1c(=O)c2c(nc(SCC(=O)NC34CC5CC(CC(C5)C3)C4)n2C)n(C)c1=O | i
COc1cccc(NC(=S)NCCc2ccccn2)c1 | 1.1%
CCOC(=O)c1c(NC(=O)c2ccco2)sc(C)c1-c1ccccc1 | i
O=S(=O)(Cc1ccccc1)N1CCN(S(=O)(=O)c2ccccc2)CC1 | i
COC(=O)c1ccc(N2C(=O)CC(NCCc3ccccc3F)C2=O)cc1 (stereo not given) | i
NC(=O)c1c(NC(=O)c2ccccc2)sc2c1CCc1ccccc1-2 | i
CCn1c(SCc2nc3ccccc3[nH]2)nnc1-c1cccc(Cl)c1 | 2.9%
Cc1cc(Cl)cc(Br)c1OCCOCCN1CCOCC1 | i
Cc1ccc2cccc(OCCOc3cccc(Br)c3)c2n1 | i
CCOC(=O)Cc1csc(NC(=O)c2ccccc2Oc2ccccc2)n1 | 3.4%
CC(C)(C)C1CCC(C(=O)Nc2nccs2)CC1 (stereo not given) | ?
CCNc1nc(NCC)nc(C(N)=O)n1 | i
CN(C1=NC(=O)CS1)c1ccc(O)cc1 | i
COc1ccc(-c2nc3cc(C(C)C)ccc3o2)cc1NC(=S)NC(=O)c1ccco1 | 3.9%
Cc1ccc(C(C)C)cc1OCCCCNCCN | i
CCn1nnc(NC(=O)COc2ccc(Cl)cc2C)n1 | i
COc1ccccc1OC(C)C(=O)Nc1nc(-c2ccc(F)cc2)cs1 (stereo not given) | 6.0%
C=CCN1C(=O)/C(=C\c2cc(Cl)ccc2OCc2cccc(C)c2)SC1=S | i
C=CCNC(=O)c1ccccc1NC(=O)C(C)N(c1ccccc1)S(C)(=O)=O (stereo not given) | i
O=S(=O)(NCCC1=CCCCC1)c1ccccc1 | i
Cc1cc(C(=O)c2ccccc2)ccc1OC(=O)c1ccc([N+](=O)[O-])c(C)c1 | 27.9%
O=C(Nc1nccs1)c1ccc(CSc2ccccn2)cc1 | i
O=C(NCCSc1ccccn1)c1ccc(CN2CCOCC2)cc1 | i
COc1cc(C(=O)NC2(C(F)(F)F)C(=O)N(c3ccc(C)c(C)c3)C3=C2C(=O)CC(C)(C)C3)cc(OC)c1OC (stereo not given) | 13.8%
COc1ccccc1N1CCN(C(=O)CC2CCCCC2)CC1 | i
S=C(NCc1ccccc1)Nc1ccc(Oc2ccccc2)cc1 | 43.7%
Cc1ccccc1NC(=O)Nc1nc2ccc(S(C)(=O)=O)cc2s1 | i
Cc1ccc(CN(CC(N)=O)S(=O)(=O)c2ccccc2)cc1 | i
Cc1ccc(OCC(=O)Nc2ccccc2N2CCN(C(=O)c3ccc(Cl)cc3)CC2)cc1 | i
O=C(CSc1nc2ccccc2c(=O)n1C1CCCC1)N1CCN(c2ccccc2)CC1 | i
O=C(CC(c1ccccc1)c1ccccc1)Nc1ncn[nH]1 | 0.7%
CC(=O)Nc1cccc(-c2nnc3n2CC(C)S3)c1 (stereo not given) | i
CCOc1cc(CNCCO)ccc1OCc1ccccc1 | i
Cc1ccc(CN(c2ccc(C(=O)Nc3cc(Cl)ccc3C)cc2)S(C)(=O)=O)cc1 | 1.4%
COc1ccc(OCCOCCNC(C)C)cc1 | i
CCCCOc1cc(Br)c(C2C3=C(CCCC3=O)NC3=C2C(=O)CCC3)cc1OC | 3.2%
O=C(CSc1nnc2scc(-c3ccccc3)n12)NCC1CCCO1 (stereo not given) | i
CCc1ccc(NC(=O)CSCc2ccccc2)cc1 | ?
CC(=O)c1ccc(NC(=O)C23CCC(C)(C(=O)O2)C3(C)C)cc1 (stereo not given) | i
CCN1CCN(c2ccc(N)cc2)CC1 | 3.3%
COc1ccc(N(CC(=O)Nc2cccc(N(C)S(C)(=O)=O)c2)S(=O)(=O)c2ccc(C)c([N+](=O)[O-])c2)cc1 | i
COc1ccc(NC(=S)NNC(=O)c2csc3ccccc23)cc1OC | i
CCOc1ccc(N(CC(=O)Nc2cc(C)ccc2C)S(=O)(=O)c2ccc(OC)c(OC)c2)cc1 | i
CCN(CC)c1ccc(NC(=S)NC(=O)c2cccc3c(Br)cccc23)cc1 | i
COc1cccc(C(=O)N2C(C)CCCC2C)c1 (stereo not given) | i
CN1CCN(c2ccc(C(=O)Nc3cccc(Cl)c3)cc2[N+](=O)[O-])CC1 | 4.41µg/mL*
CCOC(=O)c1ccc(NC(=S)N2CCC(Nc3ccc(F)cc3)CC2)cc1 | i
O=C(NCc1ccco1)c1csc2c1CCCC2 | i

(more compounds)
Structure | Mtb growth
Cc1cccc(OCCCC(=O)NCc2ccccc2)c1C | 6.0%
COc1c(C)cc(Br)cc1C(=O)NC(=S)Nc1cc(Cl)ccc1O | 1.8%
Cc1cc(C)c(C#N)c(NC2CCCCC2)n1 | i
Cn1c(=O)c2c(nc(Oc3ccc(-c4ccccc4)cc3)n2C)n(C)c1=O | i
Cc1ccc2oc(-c3cc(NC(=O)c4cncc(Br)c4)ccc3O)nc2c1 | i
O=C(CSCc1ccc(Br)cc1)N1CCOCC1 | i
CCOC(=O)C1CCCN(C(=S)Nc2cc(OC)c(OC)cc2C(=O)OC)C1 (stereo not given) | i
O=C(c1ccccc1)N1CCN(c2ccc(NC(=O)C(Cl)(Cl)Cl)cc2Cl)CC1 | i
Cc1ccc(F)cc1NC(=O)Nc1ccc(F)cc1 | i
Cc1ccc(NC(=O)CN2CCCCC2)c(C(=O)c2ccccc2)c1 | i
CCOc1cc(CN2CCN(C(=O)c3cccc(F)c3)CC2)ccc1OC | i
CC(C)C(=O)Nc1ccc(NC(=O)c2cccnc2)cc1 | i
Fc1ccc(C2C=C(c3ccc(OC(F)F)cc3)Nc3ncnn32)cc1 (stereo not given) | i
Cc1cc(Br)cc(C)c1NC(=O)c1ccccc1 | i
COc1ccc(Cc2nc(-c3cccc(Br)c3)no2)cc1 | 5.1%
C=CCc1ccccc1OCCNCCCOC | i
COc1ccc(C(C)(C)C)cc1NC(=O)c1csc(C)c1 | 15.0%
Cc1c(C(=O)Nc2ccc(N3CCN(C)CC3)cc2)cccc1[N+](=O)[O-] | 1.3%
Cc1ccc(NS(=O)(=O)c2ccc(OCC(=O)Nc3ccccc3Cl)cc2)cc1 | 2.4%
O=C(CCCOc1ccccc1)NC1CCCC1 | i
CCNC(=O)N1c2ccccc2Sc2ccccc21 | i
C/C=C/c1ccc(OCCCCN2CC(C)OC(C)C2)c(OC)c1 (stereo not given) | 4.2%
COc1ccc2nc(Nc3nc(C)c(CCC(C)C)c(=O)[nH]3)nc(C)c2c1 | 11.1%
O=S1(=O)N=C(N(Cc2ccccc2O)c2ccc(Cl)cc2)c2ccccc21 | 9.9%
Cc1nn2c3ccccc3n(CCN3CCCCC3)c2nc1=O | i

Structures shown so far containing a furan ring, fused or not:
Structure | Mtb growth
Cc1cc(C(=O)N2CCN(C/C=C/c3ccccc3)CC2)c(C)o1 | i
CCCCC(=O)NC(c1ccco1)c1cc([N+](=O)[O-])c2cccnc2c1O (stereo not given) | 1.5%
Cn1c(CNC(=O)c2ccco2)nnc1SCC(=O)N1c2ccccc2Sc2ccccc21 | i
Cc1occc1C(=O)Nc1cc(=O)n(C)c(=O)n1C | i
Cc1cccc(NC(=O)c2cc(NC(=O)c3ccco3)ccc2Cl)n1 | i
Cc1ccc(NC(=O)c2ccco2)c(NC(=O)COc2ccccc2Cl)c1 | i
CCOC(=O)c1c(NC(=O)c2ccco2)sc(C)c1-c1ccccc1 | i
COc1ccc(-c2nc3cc(C(C)C)ccc3o2)cc1NC(=S)NC(=O)c1ccco1 | 3.9%
O=C(NCc1ccco1)c1csc2c1CCCC2 | i
